# Screening data from PubChem BioAssay.
# Menin MLL FP FL: displaces fluorescein MLL peptide from human menin; 290,000 tested, under 10 active; FP activity change, % at 61.4 µM; Fluorescence polarization, fluorescein-MLL peptide displacement from menin; inconclusive = falling polarisation curve, or a change in total fluorescence; inactive = total fluorescence flat and polarisation flat or rising; no compound was filed as active; the % refers to the polarisation; negative = inhibition;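 note: % of control where 0% means no effect; inhibitors lower the polarisation; unlabelled MLL peptide was the positive control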
# ClpP mod: qHTS Assay for Activators of ClpP. actives 1.9% (n = 340,000). purified B. subtilis ClpP, FRET peptide cleavage, 20 min. Potency, µM (doses to about 57.5 µM), for inactives: top-dose activity change, negative = active. ATP-dependent Clp protease proteolytic subunit (Bacillus subtilis (strain 168)), P80244. AID 651965, 2013; active = well fitted falling curve with a large enough effect; inconclusive = small, poorly fitted or top-dose-only effect; inactive = no such curve, though single readings can be large or run the other way; note: potency is the fitted concentration of half-maximal effect; the source files actives as falling curves though it sought activators and does not explain the sign; nearly all actives have a fitted effect of over 65% in size; many hits overshoot -100%
# Target sequence (P80244 whole entry, looked up): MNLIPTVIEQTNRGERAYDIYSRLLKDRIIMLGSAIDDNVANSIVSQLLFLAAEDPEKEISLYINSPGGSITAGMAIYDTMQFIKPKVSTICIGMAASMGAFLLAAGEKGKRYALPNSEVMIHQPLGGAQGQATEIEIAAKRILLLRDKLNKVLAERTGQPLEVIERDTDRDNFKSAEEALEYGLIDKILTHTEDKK
#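 Buffer: 100 mM Tris/HCl pH8, 100 mM KCl, 0.05% low protease BSA, 2.5% glycerol, 0.01% Tween-20. ClpP 10 microg/mL final; 20 min RT; delta FRET normalized to ADEP and DMSO controls.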
# TRPML1 agonist: activates the human TRPML1 channel. Q9GZU1. TRPML1-expressing cells, Ca2+ dye fluorescence, FDSS; host cell line not named in the record; reference of the full effect not given here. activation, % (no concentration beside the values). actives 0.12% (n = 410,000); in the data active = activation above about 50%; inconclusive = about 30% to 50%; inactive = below about 30%; note: 0% is about no effect; the text of the record puts the active cut at 80%
# Target sequence (Q9GZU1 whole entry, looked up): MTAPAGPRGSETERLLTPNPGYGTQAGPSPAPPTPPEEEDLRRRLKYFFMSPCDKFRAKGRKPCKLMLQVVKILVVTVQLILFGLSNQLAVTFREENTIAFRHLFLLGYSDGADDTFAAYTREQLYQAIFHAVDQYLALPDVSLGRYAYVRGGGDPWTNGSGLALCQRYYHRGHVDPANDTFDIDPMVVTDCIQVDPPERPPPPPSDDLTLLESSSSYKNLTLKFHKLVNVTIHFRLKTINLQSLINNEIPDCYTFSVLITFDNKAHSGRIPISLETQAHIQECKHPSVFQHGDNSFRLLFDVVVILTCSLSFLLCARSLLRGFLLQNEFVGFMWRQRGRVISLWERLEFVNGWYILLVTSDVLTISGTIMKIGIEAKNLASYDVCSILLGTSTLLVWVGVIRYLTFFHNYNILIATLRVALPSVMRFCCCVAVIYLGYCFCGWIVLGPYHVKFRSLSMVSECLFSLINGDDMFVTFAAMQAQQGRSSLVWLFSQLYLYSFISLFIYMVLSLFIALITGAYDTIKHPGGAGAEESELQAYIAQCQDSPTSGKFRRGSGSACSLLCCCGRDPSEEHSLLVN
#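 Cells: TRPML1-DL, 1X Tet inducer, ~16 h at 37 degrees C/5% CO2. Dye: ABD Ca8 no-wash + quencher, 45-90 min RT. Read: 10 s baseline, compound add, 110 s agonist phase; 54-4 EC80 (4uM final), 110 s antagonist phase.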
# TRPML1 blocker: human mucolipin-1 channel inhibition. actives 0.02% (n = 390,000). activity change, negative = inhibition, % (test concentration not listed). Q9GZU1. TRPML1-inducible cells, Ca2+ dye fluorescence, FDSS; stronger effect = lower value; inhibition of EC80 agonist-evoked calcium signal. AID 624415; in the data active means activity change below about -50%; inconclusive means about -30% to -50%; inactive means above about -30%;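 note: stimulus is agonist 54-4 at its EC80 concentration; % is set by controls: 0 for no effect and ±100 for the full control effect; compound concentration not given in the record; the text of the record puts the active cut at -80%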
#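 TRPML1-DL cells, Tet-induced overnight (~16 h, 37 °C) at 1,500 cells/well, were loaded with Ca8 no-wash dye plus quencher for 45-90 min at room temperature. Compounds were pinned during FDSS kinetic reading; agonist 54-4 at EC80 (4 uM final) then added.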
# PINK1 expr mod: changes PINK1 expression. Potency, µM (highest dose often 76.6 µM), for inactives: top-dose activation (PINK1 increase), most hits filed as activators. PINK1 immunofluorescence, high-content cytometry, 24 h. actives 0.2% (n = 410,000). AID 624263; active = well fitted activation curve with a large enough effect; inconclusive = small, poorly fitted or top-dose-only effect; inactive = flat fitted curve, though single readings scatter; cell line not stated here;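 note: potency is the fitted concentration of half-maximal effect; % of control where 0% means no effect; nearly all actives have a fitted effect of over 65% in size; a mitochondrial uncoupler was the plate control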
#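 A stable cell line was treated with compounds at 5 concentrations for 24 hours, with CCCP as control. PINK1 levels and mitochondrial localization were measured by immunofluorescence with mitochondrial, cell and nuclear markers after fixation, read by laser-scanning cytometry.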
# TRPV1 potentiator: enhances activation of the human vanilloid receptor TRPV1 | Q8NER1 | TRPV1-expressing cells, Fluo-8 calcium influx, capsaicin EC20 potentiation; host cell line not named in the record; control for the full effect not named in the record | potentiation, % at 8.33 µM | actives 0.02% (n = 320,000) | AID 540277; active means potentiation above 80%; inconclusive means 30% to 80%; inactive means below 30%; note: 0% is about no effect
#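 Fluo-8 calcium influx in TRPV1-expressing cells, kinetic read (ex 480/em 520 nm). Compound added and read 3 min for agonist activity, followed by capsaicin at EC20 final and 2 min further read for enhancement.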
# Sfp inh: inhibitors of Bacillus subtilis Sfp phosphopantetheinyl transferase. Q9F4F7. Biochemical Sfp PPTase activity, qHTS. Potency, µM, for inactives: max response, negative = inhibition, actives largely listed as inhibitors. actives 3.5% (n = 310,000); active = well fitted inhibition curve with a large enough effect; inconclusive = small, poorly fitted or top-dose-only effect, or another doubt; inactive = no such curve, though single readings can be large or run the other way;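 note: the enzyme is Sfp with the accession as filed and its product quenches rhodamine fluorescence; potency is the fitted concentration of half-maximal effect; 0% = enzyme reaction without inhibitor and -100% = no enzyme wells; top concentration of the series not given in the record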
#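 Fluorescence-quenching assay: 15 nM Sfp-PPTase preincubated 15 min at room temperature with compound, then 5 uM rhodamine-CoA and 12.5 uM BHQ-2-labelled YbbR peptide added. Fluorescence (ex 525/em 598 nm) read at start and after 30 min; difference gives rate.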
# The depositor's hits bear a star; ? = inconclusive; / = no result given; & = joins results of further samples; [ ] = another dose, or the depositor's remark.
# Assay codes: A = Menin MLL FP FL; B = ClpP mod; C = TRPML1 agonist; D = TRPML1 blocker; E = PINK1 expr mod; F = TRPV1 potentiator; G = Sfp inh
Cc1ccc(C(=O)NNC(=O)c2cccnc2SCc2cccc([N+](=O)[O-])c2)cc1
  A: 12	B: -7.7%	C: 1.5	D: 44	E: 11%	F: 25	G: -9%

C/C(=N\NC(=O)c1[nH]c2c([N+](=O)[O-])cc(C)cc2c1-c1ccccc1)c1cccnc1
  A: -3.7	B: 1.8%	C: -1.7	D: -11	E: 3.6%	F: 3	G: -17%

Cc1ccc(NC(=O)CSCC(=O)Nc2ccccc2N2CCCC2)cc1
  A: /	B: /	C: 0.0	D: 1	E: 1.4%	F: 0	G: /

CCOC(=O)c1c(C)nc2c(c1-c1cc(OC)ccc1OC)C(=O)CC(C)(C)C2
  A: 3.2	B: -3.5%	C: 0.8	D: 21	E: 1.3%	F: -3	G: 20%

CCc1ccc2c(c1)/C(=N/N(C)C(=S)NC)C(=O)N2
  A: 4.0	B: -6.5%	C: -0.6	D: 30	E: -1.1%	F: -7	G: ?

Cc1ccccc1-n1c(-c2ccc(Br)o2)n[nH]c1=S
  A: /	B: -3.3%	C: 1.5	D: 15	E: 0.5%	F: /	G: /

CC(=O)Nc1ccc(NC(=O)/C=C/c2ccc(Cl)cc2)cc1
  A: -0.8	B: -1.3%	C: 0.8	D: -1	E: 2.3%	F: -12	G: -11%

CC1(C)SCC(C(=O)O)NC1=O (configuration not stated)
  A: -2.5	B: /	C: -0.4	D: 3	E: -0.2%	F: -5	G: 0%

O=C(c1cc2ccc3cccnc3c2[nH]1)N1CCN(c2ccccc2)CC1
  A: /	B: 6.7%	C: 1.4	D: 23	E: 8.4%	F: /	G: /

Cc1ccccc1Nc1c(-c2ccc(Br)o2)nc2ccc(Cl)cn12
  A: /	B: 28µM*	C: 0.8	D: -8	E: 4.0%	F: /	G: /

COc1ccccc1N1CCN(CC(=O)Nc2cc(F)ccc2C)CC1
  A: -2.1	B: -2.5%	C: 0.2	D: 1	E: -0.7%	F: 7	G: 7%

Cc1csc2nc(COc3ccc(NC(=O)COc4ccccc4F)cc3)cc(=O)n12
  A: /	B: -3.6%	C: -0.5	D: 0	E: -0.6%	F: /	G: /

CC(C)NC(=O)Nc1cccc2c1O[C@H](CN(C)C(=O)Nc1ccccc1)[C@@H](C)CN([C@H](C)CO)C2=O
  A: /	B: -0.8%	C: 0.8	D: -2	E: -0.1%	F: /	G: /

O=C(NCc1cccc(C(F)(F)F)c1)C1CCC(=O)N(C2CCCCCC2)C1 (configuration not stated)
  A: 2.1	B: /	C: -0.4	D: -12	E: 0.8%	F: 5	G: 9%

O=C1NC[C@H](Cc2ccccc2)N(C[C@H]2CCCN2C[C@H](Cc2ccccc2)N2C[C@H](Cc3ccc(O)cc3)N(CC3CCCCCC3)C(=O)C2=O)C1=O
  A: /	B: -3.2%	C: -0.5	D: 13	E: 3.0%	F: /	G: /

CC(NC(=O)CN1CCN(Cc2ccc(Cl)cc2)C1=O)c1ccc2c(c1)OCCO2 (configuration not stated)
  A: 3.5	B: 0.7%	C: -1.0	D: -3	E: 0.9%	F: -3	G: 2%

COC(=O)c1cccc(C(=O)N2CCCC(C(=O)c3cccc(OC(C)C)c3)C2)c1 (configuration not stated)
  A: /	B: 1.6%	C: -1.6	D: 0	E: 0.6%	F: 12	G: -5%

Cc1csc(NC(=O)C2=COCCO2)n1
  A: /	B: -1.9%	C: 1.4	D: -11	E: -3.3%	F: 13	G: /

C/C(=N\Nc1nc(N2CCCCCC2)nc(N2CCCCCC2)n1)c1ccccc1
  A: 0.1	B: 0.5%	C: -0.4	D: -12	E: 6.9%	F: -10	G: -5%

CC(Cc1ccccc1)C(=O)NCc1ccncc1 (configuration not stated)
  A: 1.6&-4.3	B: -0.7%	C: -0.8	D: -10	E: 2.2%	F: -7	G: 27%&13%

COc1cccc(-c2ccc3nnc(SCC(=O)Nc4ccc(NC(C)=O)cc4)n3n2)c1
  A: /	B: /	C: 1.0	D: 7	E: 11%	F: -5	G: /

COc1ccc(OCC(=O)Nc2cc(-c3nn(C)c(=O)c4ccccc34)ccc2N2CCOCC2)cc1
  A: 1.0	B: /	C: -0.5	D: 11	E: 9.3%	F: -10	G: 6%

Cn1c(=O)n(C)c2cc([N+](=O)[O-])c(N3CCN(S(=O)(=O)c4ccccc4)CC3)cc21
  A: 1.0	B: -2.0%	C: -0.7	D: -8	E: -0.3%	F: 0	G: 5%

O=C(CN1CCOc2ccccc21)NCc1cccs1
  A: 0.0	B: -2.7%	C: -0.7	D: 58	E: 3.5%[38.3 µM]	F: 8	G: 16%

COc1ccc(-c2cc(C(=O)NNC3=NCCC3)c3c(C)nn(-c4ccccc4)c3n2)cc1
  A: 0.0	B: -0.7%	C: 0.4	D: -21	E: 3.4%	F: 6	G: 3%

Cc1cccc(N=Cc2[nH]c3ccc(Br)c(Cl)c3c2O)c1
  A: ?	B: -1.2%	C: 5.5	D: 9	E: ?	F: -8	G: -18%

Cc1c2cnn(CC(=O)Nc3cccc(C(F)(F)F)c3)c(=O)c2c(C)n1Cc1ccccc1F
  A: 2.8	B: -2.5%	C: 0.9	D: -14	E: 16%	F: 1	G: 16%

COc1cc(C(=O)N[C@H](C(=O)NC2CCCCCC2)C(C)C)cc(OC)c1OC
  A: 1.3	B: -0.4%	C: -0.2	D: 2	E: 2.9%	F: -3	G: 19%

CCN(CC)S(=O)(=O)c1ccc(N2CCOCC2)c(NS(=O)(=O)c2ccc(C)cc2)c1
  A: 0.7	B: -1.2%	C: 0.5	D: -27	E: 3.5%	F: -28	G: -13%

O=C(CCn1c(=O)oc2ccccc21)NCc1ccc2c(c1)OCO2
  A: 5.5	B: -0.3%	C: -0.3	D: 23	E: -0.1%	F: -12	G: 11%

O=C(O)/C=C\C(=O)NCc1cccnc1
  A: -24	B: -3.6%	C: 0.8	D: -4	E: -0.1%	F: 1	G: -14%

CC(NS(=O)(=O)c1ccc(OCC(=O)NCc2ccncc2)cc1)c1ccccc1 (configuration not stated)
  A: -0.7	B: /	C: 0.7	D: 0	E: 1.7%	F: 7	G: 3%

Cc1c(C(=O)N2CCN(Cc3ccccc3)CC2)sc2ncnc(N3CCOCC3)c12
  A: 5.1	B: -1.3%	C: -0.5	D: 6	E: -0.3%[38.3 µM]	F: -3	G: 2%

CCCCC[C@@H](C)N1C[C@H](COCc2ccccc2)Oc2cc(N3CCC[C@@H]3COC)ccc2S1(=O)=O
  A: /	B: ?	C: 0.0	D: /	E: 3.7%	F: /	G: /

CCCCOc1ccc(C(=O)NCC(=O)N2CC(C)OC(C)C2)cc1 (configuration not stated)
  A: /	B: 1.4%	C: -0.3	D: 0	E: -0.3%	F: 3	G: /

CN1C(=O)c2ccccc2OC1(C)Cc1ccccc1 (configuration not stated)
  A: 11	B: -1.5%	C: 1.7	D: 10	E: -2.1%	F: -10	G: 2%

CCc1ccc(NS(=O)(=O)c2cccc3nonc23)cc1
  A: -1.9	B: /	C: -1.1	D: 2	E: 1.3%	F: -43	G: -7%

CC(C)OP(=O)(c1ccc(N(C)C)cc1)C(O)c1ccc(C(C)C)cc1 (configuration not stated)
  A: -7.4	B: -1.9%	C: 3.1	D: 13	E: -1.8%	F: -15	G: -3%

O=C(NN1CCN(Cc2ccccc2Cl)CC1)c1ccc(Cl)cc1
  A: 4.6	B: 1.1%	C: 3.8	D: -14	E: 3.7%	F: -31	G: -1%

COc1cccc(C(=O)OCC(=O)NCCC2=CCCCC2)c1
  A: /	B: 1.9%	C: 1.6	D: -15	E: -0.1%	F: /	G: /

# 3 entries already listed, arranged by the value under TRPML1 blocker, lowest first:
canonical_smiles,TRPML1 blocker
CCCCOc1ccc(C(=O)NCC(=O)N2CC(C)OC(C)C2)cc1 (configuration not stated),0
CCc1ccc(NS(=O)(=O)c2cccc3nonc23)cc1,2
Cc1c(C(=O)N2CCN(Cc3ccccc3)CC2)sc2ncnc(N3CCOCC3)c12,6

# Going on with the list:
# Assay codes: A = Menin MLL FP FL; B = ClpP mod; C = TRPML1 agonist; D = TRPML1 blocker; E = PINK1 expr mod; F = TRPV1 potentiator; G = Sfp inh
NC(=O)C1(Nc2ccc(-c3ccc(Cl)cc3)cc2)CCCC1
  A: /	B: ?	C: 1.3	D: 13	E: 4.8%	F: /	G: /

Cc1noc(C)c1S(=O)(=O)Nc1ccc(C#N)cc1
  A: /	B: -2.0%	C: 0.1	D: -13	E: 1.0%	F: -5	G: 19%

O=C(O)C1CCC(CNS(=O)(=O)c2ccc(Br)cc2)CC1 (configuration not stated)
  A: -6.6	B: 0.2%	C: /	D: /	E: 0.5%	F: 2	G: 8%

CCn1c(SCC(=O)NNC(=O)c2ccc(C)cc2)nnc1C(C)C
  A: -1.7	B: /	C: -0.5	D: 9	E: 1.1%	F: 0	G: 23%

O=C(COc1ccccc1[N+](=O)[O-])N1CCCc2ccccc21
  A: -19	B: /	C: 0.6	D: 8	E: 2.0%	F: 3	G: -4%

CC1C(=O)N(Cc2cn(Cc3ccco3)nn2)CCS(=O)(=O)N1Cc1ccc(-c2ccccc2Cl)cc1 (configuration not stated)
  A: /	B: -1.9%	C: -0.2	D: 37	E: 0.8%	F: /	G: /

O=C(CCC(=O)c1cccs1)NCc1ccc(F)cc1
  A: 0.5	B: -3.6%	C: -0.8	D: 19	E: -0.7%	F: 3	G: 0%

O=C(NN1C(=O)CSC1=S)c1cccnc1
  A: ?	B: -1.3%	C: 0.6	D: 3	E: -0.3%	F: -1	G: 56µM*

O=C(CSc1nc(-c2ccccc2)cc(=O)[nH]1)Nc1ccc(Br)cc1
  A: 3.2	B: /	C: 1.3	D: 4	E: -2.7%	F: 8	G: -1%

COc1cc(C(=O)Nc2nonc2-c2ccc(Cl)cc2)cc(OC)c1OC
  A: /	B: -1.7%	C: 17	D: -1	E: 2.0%	F: /	G: /

O=C(NC1CCCCCC1)c1ccc2c(c1)sc1nc(-c3ccc(F)cc3)cn12
  A: /	B: ?	C: -0.2	D: 2	E: -0.6%	F: /	G: /

COc1ccc(CC2C(=O)OC(C)(C)OC2=O)cc1
  A: 5.6	B: -0.2%	C: -0.6	D: -6	E: 0.7%	F: 9	G: 15%
